# Screens (PubChem)
# Ecoli growth – E. coli growth inhibition; OD600 absorbance (test concentration not listed); Escherichia coli growth, OD600, 23 h; hits give low values; 330,000 compounds, 0.21% hits;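 active = OD600 absorbance below the run mean of sample wells minus 3.6 SD, in any replicate, cut at about 0.56 in these data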;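 also: stock transfer was 300 nL into about 60 µL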
# FGF22 binding – FGF22 (human) thermal shift binding; Q9HCT0; recombinant FGF22 thermal shift, SYPRO orange fluorescence; percent of sucrose octasulfate shift, DMSO zero; calls only at 9.99 µM; 340,000 compounds, 1.5% hits;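 active = melting point raised past a set limit in the mean and every replicate; inconclusive = no clear call; three in four hits are not shown here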
# Target sequence (Q9HCT0 whole entry, looked up): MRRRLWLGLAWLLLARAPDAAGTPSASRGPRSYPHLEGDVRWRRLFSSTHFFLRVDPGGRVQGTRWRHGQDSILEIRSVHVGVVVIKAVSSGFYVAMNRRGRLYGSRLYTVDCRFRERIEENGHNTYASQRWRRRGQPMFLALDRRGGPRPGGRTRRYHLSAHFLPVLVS
# AF4-AF9 inh – inhibitors of human MLL-AF4/AF9 interaction; P42568; AlphaScreen, biotin-AF4 peptide binding to FLAG-AF9; inhibition, % at 10 µM; 350,000 compounds, 0.47% hits;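 active = every replicate reaching a set inhibition limit, whatever the replicate mean, cut at about 25% in these data; inconclusive = mean inhibition reaches that limit but some replicates miss it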;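 also: 0% = plate neutral control median and 100% = total signal loss; the record names both 10 and 1 µM as test concentration; the first replicate is given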
# Target sequence (P42568 whole entry, looked up): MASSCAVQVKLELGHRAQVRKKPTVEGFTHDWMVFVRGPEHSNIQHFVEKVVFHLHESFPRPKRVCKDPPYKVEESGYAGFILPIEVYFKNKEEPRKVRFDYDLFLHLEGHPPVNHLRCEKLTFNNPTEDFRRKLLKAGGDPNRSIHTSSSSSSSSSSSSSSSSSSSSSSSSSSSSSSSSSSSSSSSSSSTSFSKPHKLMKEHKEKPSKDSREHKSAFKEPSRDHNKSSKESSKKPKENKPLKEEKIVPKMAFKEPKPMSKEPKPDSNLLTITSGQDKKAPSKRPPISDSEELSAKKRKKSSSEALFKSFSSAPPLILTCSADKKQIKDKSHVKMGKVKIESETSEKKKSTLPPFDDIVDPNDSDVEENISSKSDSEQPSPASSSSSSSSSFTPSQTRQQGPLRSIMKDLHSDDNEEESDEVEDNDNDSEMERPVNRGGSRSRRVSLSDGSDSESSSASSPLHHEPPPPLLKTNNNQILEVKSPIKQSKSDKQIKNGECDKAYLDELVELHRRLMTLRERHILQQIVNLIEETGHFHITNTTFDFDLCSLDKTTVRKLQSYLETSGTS
# HNF4A DNA FP – change in binding of human HNF4 alpha to DNA | P41235 | HNF4a-FITC DNA binding, fluorescence polarization, 1 h | activity change, % at 10 µM | 360,000 compounds, 0.3% hits | AID 1224865; in the data active = activity change above about 30%, passing the limit was not always enough;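 also: controls were the assay level and a saturating level of protein; the project sought stronger binding though the title names inhibitors; some compounds called inactive have numbers as strong as hits; positive values seem to mean higher polarization but the record does not say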
# Vif TR-FRET – inhibitors of Vif binding to APOBEC3G peptide, primary screen, biochemical, TR-FRET, GST-Vif 1-94, biotin-A3G peptide, dose response retest (AID 1117319); TR-FRET GST-Vif / biotin-A3G peptide binding; higher % means a stronger effect; test concentration not given here; strong numbers were not always called active; inhibition, %, or IC50 in µM where a hit was titrated; 260,000 compounds, 0.57% hits;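 active = above the screen mean plus three standard deviations and confirmed in dose response; inconclusive = results disagree or hit not tested in dose response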;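 also: Vif residues 1-94 fused to GST binding biotinylated APOBEC3G peptide 110-148; 0% = full assay without inhibitor and 100% = GST in place of GST-Vif; retest series ran down from 100 µM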
# ALR inh – blocks human ALR sulfhydryl oxidase activity; P55789; purified ALR, DTT oxidation, H2O2 HRP-luminol luminescence; inhibition, % (concentration not given with the values); 290,000 compounds, 3.8% hits;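 active = mean and each replicate at 75% or more; inconclusive = only one of the two met; inactive = neither met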;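 also: stock transfer was 7.5 nL into about 7.5 µL; 0% = neutral wells and 100% = wells with inactivated enzyme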
# Target sequence (P55789 whole entry, looked up): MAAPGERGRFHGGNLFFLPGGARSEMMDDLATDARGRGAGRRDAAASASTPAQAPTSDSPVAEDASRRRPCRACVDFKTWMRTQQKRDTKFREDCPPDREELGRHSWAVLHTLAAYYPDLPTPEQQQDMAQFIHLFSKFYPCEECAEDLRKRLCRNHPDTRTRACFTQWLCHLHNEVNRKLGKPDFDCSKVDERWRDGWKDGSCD
# Ecoli rRNA inh – inhibits bacterial ribosomal RNA function over humanized ribosomes. E. coli WT GFP vs humanized-ribosome RFP mutants, fluorescence, 24 h; hits give low values; DMSO median 0, no signal -100. GFP signal change (wild-type ribosome), % (no concentration beside the values). 350,000 compounds, 1.6% hits. AID 720706;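 active = significant combined selectivity score with lowered wild-type GFP, culture density cut under 30%, mutant RFP and density less affected; inactive = any of these conditions unmet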; also: one replicate is shown; some compounds called inactive have numbers as strong as hits
# Ecoli rRNA inh OD600 – recorded beside Ecoli rRNA inh, whose call it bears; OD600 change, %; measured here: OD600 growth;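 optical density of the mix in the first replicate; 0 = DMSO median and -100 = no signal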
# Ecoli rRNA inh RFP – recorded beside Ecoli rRNA inh, whose call it bears; RFP signal change, %; measured here: RFP humanized mutant strains;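 first replicate; 0 = DMSO median and -100 = no signal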
# An asterisk follows results filed as active; i = inactive; ? = inconclusive; nt = not tested or not shown; & = joins results of further samples. Only part of the results is shown (hit frequency here may not be typical).
SMILES,Ecoli growth,FGF22 binding,AF4-AF9 inh,HNF4A DNA FP,Vif TR-FRET,ALR inh,Ecoli rRNA inh,Ecoli rRNA inh OD600,Ecoli rRNA inh RFP
CCOC(=O)c1c(C)[nH]c(C(=O)CN(C)CC(=O)Nc2ccccc2Cl)c1C,0.64,i,-0.6,-1.4,nt,-1,5,-1,0.9
CC(=O)N(c1nc(CCl)cs1)c1cccc(C)c1C,0.72,i,0.0,-2.7,19%,4,nt,nt,nt
CC(C)NC(=O)Nc1ccc2c(c1)C(=O)N([C@H](C)CO)C[C@@H](C)[C@@H](CN(C)C(=O)NC(C)C)O2,nt,i,1.9,nt,nt,nt,-1,-2,-0.1
CCOC(=O)N1CCN(C(=O)COC(=O)c2ccccc2NCCO)CC1,0.7,i,-6.2,-1.4,-6%,nt,-1,5,-3.4
CCCCCCn1c(CN2CCN(CCO)CC2)nc2c1c(=O)n(C)c(=O)n2C,0.74,i,-1.3,5.3,21%,-14,-1,12,-3.8
Cc1cccc(C)c1NC(=O)CN1CCN(C(=O)CNC(=O)Cc2cccc3ccccc23)CC1,nt,i,-1.7,0.5,-5%,nt,-1,-5,-3.7
O=C(CCC(=O)Nc1ccc(Cl)cc1Cl)N/N=C/c1ccc([N+](=O)[O-])o1,nt,i,-6.7,-2.7,?,2,-11,-4,-2.3
O=C(Nc1ccc(C(F)(F)F)cc1)Nc1ccc2c(c1)[C@@H]1C[C@@H](CC(=O)N3CCc4ccccc4C3)O[C@@H](CO)[C@@H]1O2,nt,i,-5.2,nt,nt,nt,-10,-36,5.7
O=C(NC1CC1)C1C2C3C4CC5C3C5C4C12 (configuration not stated),0.66,nt,nt,2.3,-1%,-5,nt,nt,nt
O=C(C[C@H]1C[C@@H]2c3cc(NC(=O)c4ccc5c(c4)OCO5)ccc3O[C@@H]2[C@H](CO)O1)NCc1cccnc1,nt,i,-0.3,nt,nt,nt,1,-2,3.0

# Random excerpt: 4 records from the list
SMILES,Ecoli growth,FGF22 binding,AF4-AF9 inh,HNF4A DNA FP,Vif TR-FRET,ALR inh,Ecoli rRNA inh,Ecoli rRNA inh OD600,Ecoli rRNA inh RFP
O=C(C[C@H]1C[C@@H]2c3cc(NC(=O)c4ccc5c(c4)OCO5)ccc3O[C@@H]2[C@H](CO)O1)NCc1cccnc1,nt,i,-0.3,nt,nt,nt,1,-2,3.0
CC(C)NC(=O)Nc1ccc2c(c1)C(=O)N([C@H](C)CO)C[C@@H](C)[C@@H](CN(C)C(=O)NC(C)C)O2,nt,i,1.9,nt,nt,nt,-1,-2,-0.1
CCOC(=O)N1CCN(C(=O)COC(=O)c2ccccc2NCCO)CC1,0.7,i,-6.2,-1.4,-6%,nt,-1,5,-3.4
O=C(NC1CC1)C1C2C3C4CC5C3C5C4C12 (configuration not stated),0.66,nt,nt,2.3,-1%,-5,nt,nt,nt

# Other entries:
SMILES,Ecoli growth,FGF22 binding,AF4-AF9 inh,HNF4A DNA FP,Vif TR-FRET,ALR inh,Ecoli rRNA inh,Ecoli rRNA inh OD600,Ecoli rRNA inh RFP
C[C@@H]1CCCCO[C@H](CN(C)Cc2ccc(C(=O)O)cc2)[C@@H](C)CN([C@@H](C)CO)C(=O)c2cc(NC(=O)Cc3ccccc3)ccc2O1,nt,i,-0.8,nt,nt,nt,3,8,1.2
CC(C)C(=O)Nc1nnc(S(=O)(=O)N2CCc3ccccc32)s1,0.77,i,-2.3,1.8,nt,nt,8,-3,0.7
O=C(COC(=O)c1ccccc1[N+](=O)[O-])NNC(=O)c1cccs1,0.71,i,-0.8,-1.2,nt,-1,6,14,-3.5
O=C1NC(=O)c2cc(Br)cc3cccc1c23,0.64,nt,0.0,-0.1,-59%,-6,17,15,1.1
Cc1ccccc1Nc1nc(N)nc(CSc2n[nH]c(N)n2)n1,0.7,i,0.2,3.0,-15%,1,9,5,-1.6
CCOC1=NN(c2ncc(C(F)(F)F)cc2Cl)C(=O)C1,0.7,i,-1.0,1.6,-1%,-1,20,17,1.7
Cc1ccc(C)c(/C(O)=C2\C(=O)C(=O)N(CCCN3CCOCC3)C2c2cccnc2)c1 (configuration not stated),0.73,nt,nt,0.3,-1%,nt,nt,nt,nt
Cc1cc(C)c(C=NNc2nc3c([nH]2)c(=O)n(C)c(=O)n3C)c(C)c1,0.68,nt,0.9,-4.3,1%,nt,-1,0,-3.7
O=S(=O)(c1ccc2c(c1)nc(COc1ccc(Cl)cc1)n2CC1CCCO1)N1CCOCC1 (configuration not stated),0.67,nt,nt,2.6,-4%,-4,nt,nt,nt
O=C(COC(=O)CCCN1C(=O)c2cccc3cccc(c23)C1=O)NC1CCS(=O)(=O)C1 (configuration not stated),0.66,i,0.0,2.4,-2%,nt,0,-2,-2.1
CCCCn1c(N)c(NCc2ccccc2)c(=O)[nH]c1=O,0.69,i,-9.2,-1.0,nt,12,13,7,-3.3
O=c1[nH]c2ccc(NS(=O)(=O)c3ccc(F)c(Cl)c3)cc2[nH]1,0.64,i,0.8,-0.1,52%,-1,7,-8,0.6
C[C@@H]1CN([C@@H](C)CO)S(=O)(=O)c2ccc(C3=CCCC3)cc2O[C@@H]1CN(C)C,nt,i,-4.8,nt,nt,nt,0,6,-3.1
Cc1cc(N2CCCC2)c(F)cc1/C=C\[N+](=O)[O-],0.71,i,-1.1,-1.1,0%,nt,8,2,16
O=C(NC1CCCC1)C(c1ccncc1)N(Cc1ccccc1F)C(=O)c1csnn1 (configuration not stated),0.71,i,-2.7,4.0,nt,-3,3,3,-3.4
C[C@H](CO)N1C[C@H](C)[C@H](CN(C)C(=O)Nc2ccc(F)cc2)Oc2ccc(NS(=O)(=O)c3ccc(F)cc3)cc2C1=O,nt,i,-4.6,nt,nt,nt,-1,-1,-1.4
COc1ccc([C@H]2CC(=O)C[C@@H](CCn3cc(-c4ccccn4)nn3)O2)cc1,nt,i,-3.9,-1.6,nt,nt,3,9,18
N#C/C(=C\c1ccc(OCC(N)=O)cc1)c1ccccc1,0.69,i,?,-0.3,nt,-20,-15,-24,-4.1
COc1cccc(NC(=O)N(C)C[C@H]2Oc3cc(C#Cc4ccccc4)ccc3S(=O)(=O)N([C@H](C)CO)C[C@H]2C)c1,nt,?,-1.5,nt,nt,nt,1,6,-0.8
O=C(c1cccc(Cl)c1)C1CCCN(C(=O)c2ccc3c(c2)OCO3)C1 (configuration not stated),0.67,i,31*,0.5,nt,4,-11,-18,1.2
CCN(CC(=O)NCc1ccc(F)cc1)C(=O)c1ccc2c(c1)OCO2,0.63,i,6.5,-0.4,13%,-2,9,18,0.8
CN(C)C(=O)C[C@@H]1CC[C@@H]2[C@H](COc3ccc(NC(=O)NCc4ccccc4)cc3C(=O)N2C)O1,nt,i,-1.5,nt,nt,nt,2,0,-2.3
N#CC1(C#N)COC23CCCCC2C1(C#N)C(=N)O3 (configuration not stated),0.66,nt,nt,-2.6,30%,-33,nt,nt,nt
O=C(COC(=O)COc1cc(Cl)c(Cl)cc1Cl)NC1CC1,0.67,i,-1.5,1.5,-6%,-26,-6,-12,-3.8
Cc1ccc(S(=O)(=O)Nc2ccc(C(=O)NCCCN3CCOCC3)cc2)cc1[N+](=O)[O-],0.62,i,-1.3,1.7,-3%,1,9,11,0.5
COC(=O)c1cc(OCC(=O)Nc2ccc3c(c2)CCC3)cc(C(=O)OC)c1,0.71,i,-2.9,0.7,nt,-12,0,1,-2.2
O=C(C[C@H]1C=C[C@H](NC(=O)c2ccncc2)[C@@H](CO)O1)Nc1ccc(-c2ccccc2)cc1,nt,i,-2.4,nt,nt,nt,-3,-2,-1.1
Cc1cccc(OCC(O)CN2CCN(c3ccccn3)CC2)c1C (configuration not stated),0.66,i,0.5,-0.9,nt,1,11,3,0.8
CC(C)Oc1ccc(Nc2ncnc3ccccc23)cc1,0.65,i,3.4,0.3,nt,3,-8,-16,-5.5
C[C@H]1CN([C@@H](C)CO)C(=O)Cc2cc(N(C)C)ccc2O[C@H]1CN(C)C(=O)Nc1ccc2c(c1)OCO2,nt,i,-2.2,nt,nt,nt,1,-1,-2.1
COc1ccc(CNC(=O)C(c2ccco2)N(C(=O)c2csnn2)c2cccc(C)c2C)cc1 (configuration not stated),0.69,nt,nt,-1.2,9%,-12,nt,nt,nt
C/C(=C\CNc1ncnc2nc[nH]c12)CO,0.76,i,-10,-5.2,nt,8,8,10,3.6
CCOc1ccc(C(=O)n2cc(C(=O)OC)c3ccccc32)cc1OCC,0.65,i,-7.5,2.6,nt,-3,-1,-6,-9.0
O=C(O)CN1C(=O)CSC1=S,0.64,i,-1.0,-2.6,-10%,-13,12,20,6.4
NCc1ccccc1CS(=O)(=O)N1CCOCC1,0.68,i,-3.5,-3.1,nt,nt,3,23,-2.1
Cc1cc(-c2nnc(-c3cccc(C(F)(F)F)c3)o2)no1,0.69,i,0.6,3.8,2%,1,-16,0,-0.5
CC(C)n1c(SC2C(=O)CC(C)(C)CC2=O)nc2c1c(=O)n(C)c(=O)n2C,0.68,nt,nt,-4.2,4%,-3,nt,nt,nt
CC(C)NC(=O)N(C)C[C@H]1Oc2ccc(NC(=O)Cc3ccccc3)cc2CC(=O)N([C@@H](C)CO)C[C@@H]1C,nt,i,-2.7,nt,nt,nt,4,9,-1.6
Cc1cc2c(ncn2Cc2ccccc2)c([N+](=O)[O-])c1C,0.68,nt,nt,5.5,17%,-20,nt,nt,nt
CCOc1ccc(Cn2nnc(C(=O)Nc3cc(C)cc(C)c3)c2N)cc1,0.69,i,-2.8,-1.4,1%,1,7,16,1.0
CC1C(=O)N2CCCc3cc(S(=O)(=O)NCc4ccccc4Cl)cc1c32 (configuration not stated),0.71,i,1.0,2.3,-3%,-2,-5,-2,4.7
COC(=O)c1cccc(N2C(=O)C3C4C=CC(CC4)C3C2=O)c1 (configuration not stated),0.67,i,-2.3,2.5,2%,4,1,-8,0.5
COc1ccc2c3c([nH]c2c1)[C@H](CO)N(C(=O)Nc1cccc(F)c1)CC31CN(CC2CCOCC2)C1,nt,i,-0.2,nt,nt,nt,-2,0,0.7
C/C(=N\N1C(=O)c2ccccc2NC1c1ccccc1)c1ccccc1O (configuration not stated),nt,i,-1.0,4.5,-2%,-3,-7,11,2.1
C[C@@H]1CN([C@H](C)CO)S(=O)(=O)c2ccc(Br)cc2O[C@H]1CN(C)C(=O)Nc1cccc(F)c1,nt,i,1.4&0.5,-3.4,7%,nt,-16&-4,-10&-10,4.5&0.4
CN(Cc1ccccc1)Cc1nc2c(c(=O)n(C)c(=O)n2C)n1Cc1ccccc1Cl,0.68,nt,nt,-3.2,17%,-3,nt,nt,nt
C[C@H]1CN([C@@H](C)CO)C(=O)Cc2cc(NC(=O)C3CCCCC3)ccc2O[C@@H]1CN(C)C(=O)Nc1ccc(C(F)(F)F)cc1,nt,i,-2.3,nt,nt,nt,-4,-6,2.4
COC(=O)C(/C=N/OCc1ccc([N+](=O)[O-])cc1)NC(=O)c1cccc(Cl)c1 (configuration not stated),nt,nt,nt,0.2,-10%,-5,nt,nt,nt
COc1ccc(/C=C/C(=O)NC(=S)N2CCN(C)CC2)cc1,0.66,i,-1.1,-1.5,-3%,-8,8,11,2.4
Cc1cc(C(=O)N/N=C/c2ccc([N+](=O)[O-])o2)c(C)o1,nt,i,-2.7,-5.1,25%,-18,-56,-81,-30
C=CCNC(=O)N1CCC(c2nc3ccccc3s2)CC1,0.61,i,4.5,-1.0,-2%,-6,-8,-7,-1.5
CCOC(=O)Cc1csc(NC(=O)/C=C\c2ccccc2)n1,0.66,i,-1.8,-2.3,nt,nt,-16,-15,-4.2
